Assay outcomes: PubChem BioAssay, several laboratories
eIF4H inh: inhibitors of RNA binding by human eIF4H. Q15056. eIF4H fluorescence polarization binding assay. inhibition, % at 35 µM. 0.94% of 290,000 active;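 active means 50% or more with normal probe brightness, or confirmed in later tests; inconclusive means above 50% with abnormal brightness, or retests that disagree; inactive means below 50% or failed in later tests; about a fifth of its hits are not listed in these tables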;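 further: calls also rest on retests at 20 µM and on dose response follow-up; 0% = protein and probe with vehicle and 100% = probe without protein; strong numbers were not always called active; many hits fall short of the cut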
Yeast UUG start: alters start codon recognition fidelity in yeast | S. cerevisiae UUG-firefly luciferase reporter, luminescence/redox ratio | activity score, % at 18.7 µM | 0.13% of 350,000 active;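 active means replicate mean at a twofold rise or more, about +100% in these data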;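 further: firefly luciferase made from a UUG start codon reports start codon fidelity; reporter light over untreated wells divided by growth signal over untreated wells; some hits fall short of that in this replicate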
CSC inhib: cancer stem cell inhibition; inhibition, % at 7.5 µM; cancer stem cell-like cells viability, luminescence; 1.1% of 300,000 active;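 active means mean at 75% or more and at least half the replicates too; inconclusive means mean and replicates disagree; tested in HMLE shEcad cells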;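 further: 0% = median of negative and 100% = median of positive control wells; the first replicate is given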
Rce1 inh: blocks yeast Ras-converting enzyme | 0.27% of 290,000 active | yeast membranes, quenched prenylated peptide cleavage fluorescence | AID 2563 | calls only;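 active means fall in fluorescence gain of 50% or more versus controls, with final raw signal at or below 3038400; inconclusive means same 50% fall but final raw signal above 3038400; inactive means fall in fluorescence gain under 50%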;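 further: plate controls were neutral control wells for no effect and wells lacking membranes for full effect; tested at 10 µM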
PABP FP inh: blocks human PABP binding to poly(A) RNA. P11940. 1% of 290,000 active. inhibition, % at 35 µM. fluorescence polarization;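 active means 50% or more with normal probe brightness, or confirmed in later tests; inconclusive means above 50% with abnormal brightness, or retests that disagree; inactive means below 50% or failed in later tests; about a fifth of its hits are not listed in these tables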;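 further: calls also rest on retests at 20 µM and on dose response follow-up; controls were probe without protein and protein plus probe with vehicle; some compounds called inactive have numbers as strong as hits; many hits fall short of the cut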
Target sequence (P11940 whole entry, looked up): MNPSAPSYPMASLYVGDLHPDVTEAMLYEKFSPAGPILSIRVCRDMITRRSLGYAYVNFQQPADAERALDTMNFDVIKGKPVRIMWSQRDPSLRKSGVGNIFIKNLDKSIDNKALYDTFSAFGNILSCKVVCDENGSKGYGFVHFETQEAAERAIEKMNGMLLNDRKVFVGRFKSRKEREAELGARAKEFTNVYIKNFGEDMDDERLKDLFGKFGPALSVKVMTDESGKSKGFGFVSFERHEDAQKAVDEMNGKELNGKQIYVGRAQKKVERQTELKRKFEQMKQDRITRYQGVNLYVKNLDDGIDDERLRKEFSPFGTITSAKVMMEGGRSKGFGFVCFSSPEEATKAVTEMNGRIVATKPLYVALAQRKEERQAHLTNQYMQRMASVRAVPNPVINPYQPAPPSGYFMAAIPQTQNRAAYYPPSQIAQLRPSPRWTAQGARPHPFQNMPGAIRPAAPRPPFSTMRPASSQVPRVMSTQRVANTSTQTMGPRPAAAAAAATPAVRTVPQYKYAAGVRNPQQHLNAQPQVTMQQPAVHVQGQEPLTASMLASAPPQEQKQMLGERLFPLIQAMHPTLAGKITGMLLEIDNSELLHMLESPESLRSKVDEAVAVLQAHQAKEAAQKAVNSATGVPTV
HIV Env fusion: HIV envelope-mediated fusion inhibition | HeLa-JRFL Env/CEM21 cell fusion, luciferase | 1.1% of 360,000 active | inhibition, % at 12.3 µM;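 active means mean replicate inhibition score of at least 50 and every replicate individually at or above 50; inconclusive means only one of the two criteria met; inactive means mean below 50 and not all replicates reaching 50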;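 further: 0% = plate neutral controls and 100% = maraviroc near 300 nM; one replicate is shown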
MT1-MMP act inh: blocks activation of human MT1-MMP; HT1080 RFP-PRO-GFP cells, GFP/RFP ratio fluorescence, overnight; percent of plate control window, DMSO zero; GFP/RFP ratio change, % at 20 µM; AID 651647; 0.061% of 360,000 active; P50281;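 active means GFP/RFP ratio change of at least 30% with cell ATP level not reduced by more than half and red fluorescence within 50% of control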; further: strong numbers were not always called active
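Assay system: HT1080 RFP-PRO-GFP cells | Dosing: 20 µM single dose, 1% DMSO | Incubation: Cells overnight before dosing, compound overnight, 37 °C, 5% CO2 | Evaluation: GFP/RFP fluorescence ratio | Control set: DMSO-only wells and HT1080 RFP-L50D-GFP cell wells as references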
eIF4H inh retest: second read-out of eIF4H inh, no call of its own (marks repeat the call); inhibition, %; compound at 20 µM; confirmation average;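 mean of two retest wells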
PABP FP inh retest: second read-out of PABP FP inh, no call of its own (marks repeat the call); inhibition, %; compound at 20 µM; confirmation repeats;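 mean of two retest wells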
MT1-MMP act inh RFP: recorded beside MT1-MMP act inh, whose call it bears; RFP signal change, %; measured here: RFP expression control read;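 0 = vehicle wells; hits needed this value within 50% of zero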
Numbers without * were called inactive; i = inactive; ? = inconclusive; . = no result given. Only part of the results is shown; count on the stated rates, not on these rows.

SMILES | eIF4H inh | Yeast UUG start | CSC inhib | Rce1 inh | PABP FP inh | HIV Env fusion | MT1-MMP act inh | MT1-MMP act inh RFP | others
N#CC(=Cc1ccccn1)c1nc(-c2ccc(Cl)cc2)cs1 | . | -9.7 | . | . | . | -33.1 | -77.3 | 0.7
Cc1cc(Cl)ccc1NC(=O)CCCN1C(=O)CCC1=O | -20.3 | -2.5 | -5.7 | i | -8.3 | -55.7 | -2.5 | 1.1
COc1cccc(CC(NC(C)=O)C(=O)NC2CCN(c3nc(C)cc(C)c3C#N)CC2)c1OC (configuration not stated) | -5.3 | -2.4 | . | i | -7.7 | -12.2 | 2.1 | 0.2
CC[C@]12c3[nH]c4ccc(OC)cc4c3CCN1C(=O)C(CC(=O)NC(C)(C)C)C[C@@H]2C(=O)N1CCN(C(=O)c2ccco2)CC1 (some centres not stated) | . | -1.8 | . | . | . | -34.1 | 1.4 | 3.7
Cc1ccc2nc(-c3ccccc3)cc(C(=O)NNC(=O)c3csc(N4CCOCC4)n3)c2c1 | . | . | 11.7 | i | . | -28.2 | 9.4 | 2.2
CC(SCc1ccc(C(=O)O)o1)c1ccc(C(=O)O)o1 (configuration not stated) | -4.6 | -23.9 | -7.6 | i | 6.1 | 10.1 | 3.4 | 1.2
COc1ccccc1N1CCN(C(=O)c2cc3cc(Br)ccc3oc2=O)CC1 | -2.2 | 23.9 | -13.3 | i | 1.9 | 10.2 | 0.8 | 1.4
Cc1ccc(-n2nc3c(c2NC(=O)C(C)C)CS(=O)(=O)C3)cc1 | 1.1 | -3.1 | -19.0 | i | -2.0 | . | -3.6 | 3.7
CCOC(=O)C(CC)(CCC(=O)OC)c1csc(Nc2ccccc2O)n1 (configuration not stated) | 0.2 | . | -1.1 | i | -0.1 | . | . | .
COc1ccc(Cl)cc1NC(=O)COC(=O)CCNC(C)=O | -4.3 | -14.0 | -7.8 | i | 5.8 | . | 0.8 | -1.5
CN1CCN(Cn2cc(/C=C/C(=O)c3ccccc3)c3ccccc32)CC1 | -7.6 | -20.2 | 17.8 | i | -6.7 | . | 1.7 | -1.4
N#C/C(=C\c1cccs1)C(=O)NCc1cccnc1 | 2.9 | . | -6.1 | i | -9.4 | -4.9 | -0.8 | 2.7
CCc1ccccc1NC(=S)N1CCCCCC1 | 4.8 | -12.7 | 0.2 | i | -3.4 | -205.5 | -2.0 | 2.0
CCC1=C2CC[C@H]3C(=O)N(CC)C(=O)[C@H]3[C@H]2[C@@]2(Cc3ccccc3)C(=NCc3ccccc3)OC(=O)N2C1=O | 0.1 | 0.1 | -2.1 | i | -2.3 | -59.0 | -2.7 | -0.4
CC1(C(=O)NS(=O)(=O)Cc2ccccc2C(F)(F)F)CCN1C(=O)Cc1cccs1 (configuration not stated) | . | -7.3 | . | . | . | -19.4 | 5.0 | 7.4
Cc1cc(Cl)c(S(=O)(=O)NCC2CCCO2)cc1OCC(=O)NC1CCCCC1 (configuration not stated) | 2.7 | -7.6 | -4.7 | i | 1.9 | -6.7 | 6.3 | -7.2
Cc1nc(-c2ccccc2)sc1C(=O)O | -15.6 | . | 3.7 | i | -3.4 | -22.8 | -2.7 | 3.2
CCc1cc(S(=O)(=O)N2CCN(C(=O)c3ccco3)CC2)ccc1OC | -8.9 | -8.0 | 8.7 | i | -6.7 | 13.5 | -4.9 | -5.6
COCCN1C[C@@H](CO)O[C@@H](n2cnc3c(NCc4ccco4)ncnc32)C1 | . | -5.6 | . | . | . | 1.9 | 0.5 | 4.5
Cc1ccc(S(=O)(=O)NC(C(=O)Oc2ccc3ccc(=O)oc3c2)c2ccccc2)cc1 (configuration not stated) | -9.5 | -6.0 | -1.6 | i | -3.7 | 9.7 | -1.2 | 2.6

The last 2 entries of the section before are carried over, then new ones follow:
SMILES | eIF4H inh | Yeast UUG start | CSC inhib | Rce1 inh | PABP FP inh | HIV Env fusion | MT1-MMP act inh | MT1-MMP act inh RFP | others
COCCN1C[C@@H](CO)O[C@@H](n2cnc3c(NCc4ccco4)ncnc32)C1 | . | -5.6 | . | . | . | 1.9 | 0.5 | 4.5
Cc1ccc(S(=O)(=O)NC(C(=O)Oc2ccc3ccc(=O)oc3c2)c2ccccc2)cc1 (configuration not stated) | -9.5 | -6.0 | -1.6 | i | -3.7 | 9.7 | -1.2 | 2.6
CCN1CCN(CC(=O)N2N=C(c3cccs3)CC2c2ccc(OC)cc2)C(=O)C1=O (configuration not stated) | -9.5 | . | -1.5 | i | -1.2 | 10.5 | 1.2 | 1.6
O=C(COc1cccc2ccccc12)Nc1cc(Cl)ccc1C(=O)O | -3.6 | -3.2 | 46.0 | i | 1.5 | -15.9 | -7.0 | -0.7
COc1ccc(N2C(=O)CC(N3CCN(S(=O)(=O)c4ccc(Cl)cc4)CC3)C2=O)cc1 (configuration not stated) | -8.6 | . | 9.3 | i | -3.2 | 11.6 | 0.8 | 0.1
Cc1onc(C(=O)Nc2c(C)n(C)n(-c3ccccc3)c2=O)c1[N+](=O)[O-] | 20.8 | -6.9 | -5.2 | i | -1.1 | 9.1 | 11.2 | 17.1
NC(=O)C1CCN(c2c([N+](=O)[O-])cc(C(F)(F)F)cc2[N+](=O)[O-])CC1 | 3.9 | 1.2 | 10.2 | i | 1.2 | 13.7 | 1.3 | 2.0
COc1cccc(/C=c2\s/c(=C/C(=O)c3ccc(C)cc3)[nH]c2=O)c1OC | 34.8 | 9.0 | 7.1 | i | 0.5 | -42.4 | 5.5 | 9.8
COc1ccc(OC)c(S(=O)(=O)N2CCC(C(=O)NCCc3ccccc3)CC2)c1 | -15.2 | -3.4 | -8.5 | i | -4.5 | . | 1.1 | 2.4
COC(=O)c1c(-c2cccs2)csc1NC(=O)c1cccnc1 | -1.1 | -15.1 | -0.7 | i | 17.2 | . | -3.6 | -8.0
CC1CN(S(=O)(=O)c2ccc(C(=O)Nc3nnc(-c4ccco4)o3)cc2)CC(C)O1 (configuration not stated) | 7.6 | . | 31.4 | i | -9.8 | -2.0 | 0.7 | -0.2
Cc1cc(C)c(NC(=O)CN(C)S(=O)(=O)c2ccc3c(c2)n(C)c(=O)c(=O)n3C)c(C)c1 | -0.1 | -4.5 | -13.0 | i | -13.7 | 4.7 | 7.2 | 2.9
Cc1ccc(Cn2c(=S)[nH]c3ccccc3c2=O)cc1 | -1.3 | -1.9 | . | i | -8.9 | 16.9 | 0.8 | -1.7
CCS(=O)(=O)c1ncc(Cl)c(C(=O)Nc2ccc(S(=O)(=O)N(C)c3ccccc3)cc2)n1 | -6.3 | -3.8 | 98.1* | i | -3.0 | ? | -8.2 | -13.4
CC1=NN(c2cccc(Cl)c2)C(=O)C12CC(C)=C(C)CS2 (configuration not stated) | 4.0 | -16.6 | 39.2 | i | 1.1 | 14.1 | -5.7 | -5.1
O=C1NCCN(Cc2ccc(Cl)c(F)c2)C1CC(=O)N1CCc2ccccc2C1 (configuration not stated) | 53.8* | -4.5 | -12.4 | i | 20.0 | 20.5 | -6.9 | -1.9 | eIF4H inh retest=81.0*;PABP FP inh retest=18.8
COc1ccc(CCN(C)CC(O)COc2c(C)ccc(C)c2C)cc1OC (configuration not stated) | -2.3 | 6.2 | 20.3 | i | -4.2 | 4.3 | -0.1 | -1.6
O=C(CCc1ccccc1)N1CCCN(C(=O)CCc2ccccc2)CC1 | 6.9 | . | -18.0 | i | 8.4 | 11.7 | -0.7 | 0.9
CSc1ccc(CCNC(=O)c2cc(-c3ccccc3)c(N3CCOCC3)s2)cc1 | -22.9 | 2.1 | 9.6 | i | -5.6 | 13.9 | -1.4 | -12.6
CC(C)(C)c1ccc(C(=O)N2CCC2(C)C(=O)NCC(F)(F)F)cc1 (configuration not stated) | . | 1.2 | . | . | . | -19.0 | 7.7 | 9.0
COc1ccc(C(=O)Oc2ccc(C(C)=O)cc2)c(OC)c1 | -6.7 | -9.1 | 5.2 | i | -0.3 | . | 5.3 | 0.7
c1ccc2sc(NC3=NCN(C4CCCCCC4)CN3)nc2c1 | 1.7 | -5.9 | -11.4 | . | -1.1 | . | 5.5 | -7.5
CCOC(=O)N(NC(=O)C(O)(CC(C)C)CC(C)C)c1ccccc1 | -7.3 | . | 1.6 | . | -5.4 | -4.2 | 0.6 | 3.4
CCOC(=O)N1CCC(NC(=O)CCC(=O)N2CCOc3ccc(Cl)cc32)CC1 | -6.3 | . | -43.3 | i | -8.4 | 2.6 | -0.2 | 1.4
O=C(Nc1cccc(O)c1)c1cc(-c2ccccc2Cl)on1 | -17.6 | -76.2 | 30.6 | i | -4.6 | -152.9 | -1.3 | -7.5
O=C(CCNS(=O)(=O)c1ccc2[nH]c(=O)oc2c1)Nc1ccccc1 | -10.8 | -11.3 | -3.1 | i | 15.4 | . | 0.8 | 3.5
CC(C)N(CCCNC(=O)Cn1c(=O)c2cccn2c2ccc(F)cc21)Cc1ccccc1 | 7.7 | -5.0 | -12.3 | i | 3.5 | 7.8 | -0.3 | 0.7
Cc1cc(Cl)c(S(=O)(=O)Nc2ccccn2)cc1OCC(N)=O | -3.0 | -12.9 | 1.2 | i | 6.5 | . | 1.1 | 2.3
CN(C)S(=O)(=O)c1ccc2c(c1)nc(CCC(=O)NCC(=O)Nc1ccc(F)c(F)c1F)n2C | . | -10.7 | . | . | . | -41.4 | 0.4 | 2.5
COC(=O)c1ccc(OS(=O)(=O)c2ccc(NC(C)=O)cc2)cc1 | -10.7 | . | -4.8 | i | -8.1 | 19.6 | -2.8 | -10.8
Cc1ccc(NC2CCCN(C(=O)c3cc(C(C)C)nn3C)C2)cc1C (configuration not stated) | . | -18.9 | . | . | . | 7.5 | 0.8 | -0.8
COc1cccc(CNC(=O)CCC2CCCN(C/C=C/c3ccccc3OC)C2)c1 (configuration not stated) | -5.2 | -4.5 | -1.2 | i | -5.4 | 27.8 | -1.3 | -4.2
CCCCN1C(=O)Nc2ccccc2S1=O (configuration not stated) | -1.4 | . | 26.3 | i | 34.0 | 19.7 | -2.6 | 3.8
Cc1ccccc1NC(=O)NNC(=O)OC(C)(C)C | 6.3 | -13.5 | -7.7 | i | -3.3 | 8.5 | 1.7 | 3.2
CC(C)CCNc1c(-c2cccs2)nc2ccccn12 | 22.3 | . | -3.3 | i | 24.8 | 15.4 | -3.7 | -7.5
CCN(c1ccc(NC(=O)COC(=O)CCC(=O)c2ccc(F)cc2)cc1)C(C)C | -5.2 | -5.8 | 0.3 | i | 1.0 | . | -4.1 | 2.1
Oc1ccc(N2CCN(c3nc(-c4cccs4)nc4ccccc34)CC2)cc1 | -3.3 | . | 86.9* | i | 6.3 | 27.5 | -5.0 | -4.9
Cc1ccccc1C(=O)NC1CCN(CC(=O)Nc2ccc(Br)cc2)CC1 | -19.9 | 5.8 | 1.0 | . | 11.8 | 33.0 | 1.5 | -3.8
O=C(Oc1cc2oc(=O)c3c(c2cc1Cl)CCCC3)c1cccs1 | -4.9 | . | -9.1 | . | 11.9 | 9.8 | -1.3 | -2.6
CC(c1ccccn1)N(CCN(C)C)C(=S)Nc1cccc(F)c1 (configuration not stated) | 8.8 | -30.5 | -6.3 | i | 0.1 | . | -3.5 | 0.1
O=C(c1ccc(Br)o1)N1CCC(Cc2ccccc2)CC1 | 1.0 | 0.2 | 3.4 | i | -3.6 | 7.7 | -1.9 | -0.5
